GALR2 agonist: agonists of human galanin receptor 2 (GALR2) | GALR2-expressing cells, agonist activation read-out | AID 803 | activation, %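 (tested at 5 µM)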 | actives 0.48% (n = 140,000) | O43603;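 active = above mean plus 3 SD of all compounds, about 5% in these data, not always enough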;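 note: 0% = vehicle buffer wells and 100% = reference agonist at full effect; tested in CHO reporter cells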
Target sequence (O43603 whole entry, looked up): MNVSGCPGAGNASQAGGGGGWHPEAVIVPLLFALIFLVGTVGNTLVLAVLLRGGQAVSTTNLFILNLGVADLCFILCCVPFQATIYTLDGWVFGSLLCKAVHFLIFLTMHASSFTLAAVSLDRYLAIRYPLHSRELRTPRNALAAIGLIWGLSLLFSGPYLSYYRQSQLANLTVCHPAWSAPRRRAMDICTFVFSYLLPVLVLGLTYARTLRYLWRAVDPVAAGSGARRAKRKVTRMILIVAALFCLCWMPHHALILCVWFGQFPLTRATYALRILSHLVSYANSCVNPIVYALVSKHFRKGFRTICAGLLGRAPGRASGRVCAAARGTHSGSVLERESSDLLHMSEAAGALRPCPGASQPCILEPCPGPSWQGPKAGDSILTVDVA
PKD1 kinase inh: inhibitors of human PKD1 kinase. PKD1 kinase fluorescence polarization assay. inhibition, %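 (about 10 µM by stock and volumes)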. actives 0.056% (n = 200,000). AID 797;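 active = inhibition of 50% or more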;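 note: controls were vehicle for no effect and a reference inhibitor for full effect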
HSV replic up: increases HSV replication in cells; HSV replication augmentation in cells, fold increase; maximum fold increase; actives 0.005% (n = 220,000);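 active = peak rise of 1.5-fold or more in the series; tested in PC3 cells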;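 note: first round at 10 µM; read as green reporter fluorescence; hits show the peak of a series up to 25 µM; 1 = signal of infected wells without compound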
INS promoter inh: TRM-6 insulin promoter activity inhibition | inhibition, % at 2 µM | actives 0.9% (n = 130,000) | AID 1273 | TRM-6 cells (human fetal islet line), insulin promoter-eGFP reporter, imaging; reporter expression induced with tamoxifen;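 active = inhibition above the mean plus 3 SD, with well images judged a real hit on visual review, cut at about 60% in these data, passing the limit was not always enough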
RGS16-Gao: modulates binding between human RGS16 and Galphao; AID 1441; bead-based flow cytometry RGS16-Galphao binding, fluorescence; actives lie on both sides; binding response (% of control), % at 10 µM; actives 0.38% (n = 220,000); O15492+P09471;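 active = below 25% or above 175%, edge rows of some plates excepted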;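 note: Galphao activated by GDP with aluminum fluoride before binding; 100% = wells without compound and 0% = beads without RGS; some results beyond the cut were filed as inactive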
Target sequence (O15492 whole entry, looked up): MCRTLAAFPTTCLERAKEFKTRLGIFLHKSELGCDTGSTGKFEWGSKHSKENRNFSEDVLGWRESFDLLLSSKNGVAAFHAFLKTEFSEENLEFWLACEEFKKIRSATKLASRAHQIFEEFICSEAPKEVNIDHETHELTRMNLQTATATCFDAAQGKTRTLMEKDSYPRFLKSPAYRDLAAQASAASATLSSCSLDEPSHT
Target sequence (P09471 whole entry, looked up): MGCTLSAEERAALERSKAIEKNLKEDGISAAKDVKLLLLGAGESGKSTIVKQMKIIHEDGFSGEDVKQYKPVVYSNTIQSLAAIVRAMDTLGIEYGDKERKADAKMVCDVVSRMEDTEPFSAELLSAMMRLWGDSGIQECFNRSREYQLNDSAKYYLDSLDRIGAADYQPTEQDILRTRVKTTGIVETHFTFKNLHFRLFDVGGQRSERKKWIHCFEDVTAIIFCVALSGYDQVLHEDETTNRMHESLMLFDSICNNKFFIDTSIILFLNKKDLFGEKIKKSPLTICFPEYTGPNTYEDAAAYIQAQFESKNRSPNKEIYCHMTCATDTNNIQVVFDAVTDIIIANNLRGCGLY
INS promoter inh cell count: further read-out of INS promoter inh, marked with its call; normalized cell count, %; measured here: cell count, toxicity; reference of the scale not given here;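 cells exposed to compound for 48 h; stained nuclei by imaging scaled within each plate; lower means fewer cells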
HSV replic up primary fold: further read-out of HSV replic up, marked with its call; fold increase; compound at 10 µM; measured here: primary screen fold increase 10 uM; tested in PC3 cells;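 GFP signal in the first replicate; 1 = infected wells without compound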
* marks the source's active call; other numbers are inactive results; i = inactive; / = no result given.

SMILES	GALR2 agonist	PKD1 kinase inh	HSV replic up	HSV replic up primary fold	INS promoter inh	INS promoter inh cell count	RGS16-Gao
COc1ccc(C(C(=O)NC2CCCCC2)N(C(=O)c2sc(C)nc2C)c2ccccc2C)cc1 (stereo not given)	-3.5	3	i	0.74	-103	63	102
COC(=O)C(=Nc1ccccc1)/C(C(=O)C(=O)N(C)c1ccccc1)=C(\O)c1ccccc1	/	/	i	0.99	/	/	101
COC(=O)c1ccc(N=Cc2c(C(F)(F)F)[nH][nH]c2=O)cc1	/	-9	i	0.99	/	/	102
COc1ccccc1NC(=O)NCC(=O)Nc1c(C)cccc1C	/	-4	i	1	7	114	101
CCCC(=O)n1nc(-c2ccco2)nc1SCc1ccccc1	-0.4	-2	i	1.2	/	/	87
CCOC(=O)c1ccc(NC(=O)c2ccc3c(c2)OCO3)cc1	-1.5	-12	i	0.88	60	111	101
CCc1ccc(-n2c(=O)c3c(C)c(C(=O)N(C)C)sc3n(CC(=O)NCC3CCCO3)c2=O)cc1 (stereo not given)	/	-7	i	0.91	7	143	102
Cc1ccccc1OCCSc1nc(N(C)C)nc(N(C)C)n1	0.2	-3	i	1.1	14	151	102
O=C(CSc1nnc(-c2ccco2)n1-c1ccccc1)NCc1ccc2c(c1)OCO2	-3.1	5	i	0.89	5	8	97
CCOC(=O)C1CCCN(C(=O)CCc2ccccc2)C1 (stereo not given)	-2.5	-8	i	0.68	/	/	109
O=C1CNCc2[nH]c3ccccc3c2N1c1ccccc1	-0.6	-7	i	0.91	25	76	107
Cn1cc(Cl)c(-c2n[nH]c(=S)n2C2CCCCC2)n1	/	6	i	0.89	/	/	96
CCOC(=O)c1sc(NC(=O)CN2C(=O)c3cccc4cccc(c34)C2=O)nc1C	-1.1	3	i	0.88	-5	124	94
O=C(O)CSCc1c(F)cccc1Cl	-0.3	-2	i	0.94	-19	97	102
COc1ccc(CCN2CCCn3c2nc2c3c(=O)n(Cc3ccccc3F)c(=O)n2C)cc1OC	0.4	-1	i	0.94	/	/	103
CCc1cc2c(-n3nc(C)cc3C)ncnc2s1	-0.2	2	i	1.1	-343	45	103
COc1ccccc1/C=C/C=N/n1c(COc2ccccc2)n[nH]c1=S	-2.1	-20	i	0.85	-21	51	116
CC(C)C(=O)Nc1ccc(C(=O)NNC(=O)C(c2ccccc2)c2ccccc2)cc1	-1.8	-7	i	0.88	/	/	105
Cc1cccnc1NC(=O)CSc1nnc(COc2ccc(C(C)C)cc2)n1C	0.2	-13	i	0.94	-10	80	102
O=C(COc1ccc(Cl)cc1Cl)NNC(=S)NC(=O)c1ccco1	/	/	i	1	/	/	107
O=C(Cc1ccc(-c2ccccc2)cc1)NCc1cccnc1	/	-4	i	0.82	/	/	103
O=C(c1ccc2c(c1)c(=O)oc1ccccc12)N1CCCCC1	2.3	-6	/	/	11	57	/
O=C(NC(=S)Nc1cccc(NC(=O)c2ccccc2Cl)c1)c1cccs1	-1.3	-8	i	0.98	-61	56	111
COC(=O)c1c(NC(=O)CN2CCOCC2)sc2c1CCC(C)C2 (stereo not given)	-1.3	21	i	0.91	10	78	109
COC(=O)C(C(=O)OC)C(C[N+](=O)[O-])c1ccc(OC)c(OC)c1 (stereo not given)	-0.9	-20	i	0.93	8	99	101
O=C(NN1C(=O)c2ccccc2C1=O)c1ccc2c(c1)C(=O)N(CC1CCCO1)C2=O (stereo not given)	/	/	i	0.95	/	/	110
O=[N+]([O-])c1cc(-c2cnc3ccccc3n2)ccc1Oc1ccc(Cl)cc1	-1.9	-6	i	1.4	/	/	97
COc1ccc2[nH]cc(C3N4CC5(C)CN3CC(C)(C4)C5=O)c2c1 (stereo not given)	-1.4	-5	i	0.88	-13	89	91
NS(=O)(=O)c1cccnc1Nc1cccc(Cl)c1Cl	-0.4	-3	i	0.96	11	77	101
O=C(NC(=S)NNC(=O)c1cnccn1)c1ccc(F)cc1	/	-5	i	0.86	64	120	97
O=C1C(CSCc2ccccc2)NC(=S)N1c1ccccc1 (stereo not given)	/	/	i	0.92	/	/	119
CCN1CCN(c2cc(C)c3cc(NC(=O)c4ccc(Br)o4)ccc3n2)CC1	-3.7	3	i	0.66	0	79	94
Cc1cc(C)c(S(C)(=O)=O)c(Oc2cccc(C(F)(F)F)c2)n1	/	4	i	1	/	/	100
CC(=O)O[C@@H]1[C@@H](OC(C)=O)[C@H](n2ccc3cc([N+](=O)[O-])ccc32)OC[C@@H]1OC(C)=O	0.5	-3	i	1.1	-44	145	107
COc1cccc(-n2nnnc2SCC(=O)Nc2cccc(NC(C)=O)c2)c1	-1.2	-8	i	0.91	24	114	104
O=C(NCCOc1ccccc1)c1ncn[nH]1	1.6	0	i	0.87	36	81	96
O=Cc1cn(CC(=O)N2CCCCC2)c2ccccc12	-0.5	-4	/	/	-8	137	109
O=C(Cc1ccc([N+](=O)[O-])cc1)Nc1ccc(O)cc1C(=O)O	-0.6	-1	i	0.98	27	112	104
CCN(CC)C(=O)/C(=C/c1ccc(F)cc1)NC(C)=O	0.3	-10	i	0.95	3	94	103
Cc1ccc([N+](=O)[O-])cc1NC1OC(CO)C(O)C1O (stereo not given)	-1.4	28	i	0.8	0	124	108

A second format for part of the listing above.
compound | GALR2 agonist | PKD1 kinase inh | HSV replic up | HSV replic up primary fold | INS promoter inh | INS promoter inh cell count | RGS16-Gao
COC(=O)C(C(=O)OC)C(C[N+](=O)[O-])c1ccc(OC)c(OC)c1 (stereo not given) | -0.9 | -20 | i | 0.93 | 8 | 99 | 101
O=C(NN1C(=O)c2ccccc2C1=O)c1ccc2c(c1)C(=O)N(CC1CCCO1)C2=O (stereo not given) | / | / | i | 0.95 | / | / | 110
O=[N+]([O-])c1cc(-c2cnc3ccccc3n2)ccc1Oc1ccc(Cl)cc1 | -1.9 | -6 | i | 1.4 | / | / | 97
COc1ccc2[nH]cc(C3N4CC5(C)CN3CC(C)(C4)C5=O)c2c1 (stereo not given) | -1.4 | -5 | i | 0.88 | -13 | 89 | 91
NS(=O)(=O)c1cccnc1Nc1cccc(Cl)c1Cl | -0.4 | -3 | i | 0.96 | 11 | 77 | 101
O=C(NC(=S)NNC(=O)c1cnccn1)c1ccc(F)cc1 | / | -5 | i | 0.86 | 64 | 120 | 97
O=C1C(CSCc2ccccc2)NC(=S)N1c1ccccc1 (stereo not given) | / | / | i | 0.92 | / | / | 119
CCN1CCN(c2cc(C)c3cc(NC(=O)c4ccc(Br)o4)ccc3n2)CC1 | -3.7 | 3 | i | 0.66 | 0 | 79 | 94
Cc1cc(C)c(S(C)(=O)=O)c(Oc2cccc(C(F)(F)F)c2)n1 | / | 4 | i | 1 | / | / | 100
CC(=O)O[C@@H]1[C@@H](OC(C)=O)[C@H](n2ccc3cc([N+](=O)[O-])ccc32)OC[C@@H]1OC(C)=O | 0.5 | -3 | i | 1.1 | -44 | 145 | 107
COc1cccc(-n2nnnc2SCC(=O)Nc2cccc(NC(C)=O)c2)c1 | -1.2 | -8 | i | 0.91 | 24 | 114 | 104
O=C(NCCOc1ccccc1)c1ncn[nH]1 | 1.6 | 0 | i | 0.87 | 36 | 81 | 96
O=Cc1cn(CC(=O)N2CCCCC2)c2ccccc12 | -0.5 | -4 | / | / | -8 | 137 | 109
O=C(Cc1ccc([N+](=O)[O-])cc1)Nc1ccc(O)cc1C(=O)O | -0.6 | -1 | i | 0.98 | 27 | 112 | 104

The list continues.
SMILES	GALR2 agonist	PKD1 kinase inh	HSV replic up	HSV replic up primary fold	INS promoter inh	INS promoter inh cell count	RGS16-Gao
CC1=CN2C(=N)/C(=C/c3ccc(Sc4ccc(Cl)cc4)o3)C(=O)N=C2S1	-1.8	-8	i	1.3	/	/	112
COC(=O)c1cn(NC(=O)Cc2ccc(OC)c(OC)c2)c(=O)c2ccccc12	/	3	i	0.92	-18	132	105
C=CCn1c(CCNC(=O)c2cccs2)nnc1SCC(=O)Nc1cccc(Cl)c1C	-0.3	-3	i	0.8	-4	150	101
O=C(N/N=C/c1ccc([N+](=O)[O-])cc1)c1cccc2cc[nH]c12	/	0	i	0.83	/	/	98
CC1(C)CSC(=NCCc2ccccc2)N1C(=O)c1ccc(C#N)cc1	-1.9	-16	i	1.1	22	69	18
COc1cc(/C=N/NC(=O)C[n+]2ccccc2)cc(OC)c1OC	-0.7	-4	i	0.94	-6	134	102
CCOC(=O)N1CCC(NC(=O)C2CCCN(S(C)(=O)=O)C2)CC1 (stereo not given)	-1.6	-3	i	0.94	57	115	103
COc1ccccc1C1C=C(c2ccccc2)Nc2nnnn21 (stereo not given)	-0.5	-1	i	0.99	63	128	111
CC(=O)N1N=C(c2ccncc2)CC1c1ccccc1O (stereo not given)	/	3	i	1	/	/	97
Cc1ccc(C2CC(=O)Oc3cc(O)ccc32)cc1 (stereo not given)	-0.7	-10	i	1.1	-5	139	96
O=C(CSC1=Nc2ccccc2C2=NC(CC(=O)NCc3ccco3)C(=O)N12)NCc1ccco1 (stereo not given)	-2.4	-3	i	0.8	27	70	98
O=C(O)c1ccc(/C=N/NC(=O)C2CC2(c2ccccc2)c2ccccc2)cc1 (stereo not given)	/	-1	i	1	/	/	103
CCOC(=O)C1CCN(C(=O)C(C)c2ccc([N+](=O)[O-])cc2)CC1 (stereo not given)	/	-2	i	1	-24	59	106
O=C(CN1C(=O)CC(c2ccccc2)S(=O)(=O)c2ccccc21)N1CCCC1 (stereo not given)	/	3	i	0.99	33	88	99
CCOC(=O)c1cc(C#N)c(SCC(=O)c2cc(C#N)c(SC)nc2C)[nH]c1=O	-0.7	-11	i	1	/	/	100
O=C1c2ccccc2C(=O)N1CCc1ccccn1	-1.9	-3	i	1.1	33	44	i
Cn1cnnc1Sc1ccc(/C=C/C(=O)c2ccc(O)cc2)cc1[N+](=O)[O-]	/	-6	i	0.53	50	107	105
CCOC(=O)c1ccc(Oc2nc(OC)cc(OC)n2)cc1	/	2	i	0.98	/	/	102
Cc1ccc(-c2nc3[nH]c(=O)cc(NC(=O)C(C)C)n3n2)cc1	/	/	i	0.9	/	/	102
O=S1(=O)NC(=NC2CCCCCC2)c2ccccc21	-2.5	-3	i	1.1	44	151	89
CSc1sc(C(=O)NCC2CC2)cc1S(=O)(=O)C(C)C	/	/	i	1.1	/	/	111
Cc1ccc(/C=C/C(=O)N2CCc3ccccc3C2)cc1	-2.8	-7	/	/	12	64	98
CN(C)CCN(Cc1ccccc1)c1ccnc(N(C)C)c1C#N	-0.9	2	/	/	-3	95	102
COc1ccc(C2=NN(S(C)(=O)=O)C(c3cccs3)C2)cc1OC (stereo not given)	/	1	i	0.94	/	/	86
c1ccc2c(c1)OCCOCCOCCO2	/	1	i	0.98	/	/	100
C#CC(CC)(CC)NC(=S)Nc1ccc(S(N)(=O)=O)cc1	0.1	1	i	1	21	101	110
COc1cc(NC(=O)CSc2nnc3n2C(C)(C)Cc2ccccc2-3)cc(OC)c1	1.8	3	i	0.52	-7	88	101
CCOc1cc(S(=O)(=O)NC2CCCC2)ccc1Cl	-2.4	-2	i	0.86	0	103	106
Cc1cccc(C(=O)Nc2cccc(-c3cnc4ccccc4n3)c2)c1	-4.4	-4	i	0.91	-17	95	101
COc1ccc(NC(=O)Nc2ccc3nccnc3c2)cc1	-2.3	-2	i	0.78	6	127	104
COc1ccc(NC(=O)CCCC2=NS(=O)(=O)c3ccccc3N2)cc1	-1.2	-2	/	/	15	123	34
O=C(c1ccco1)N(Cc1cccs1)C1CCS(=O)(=O)C1 (stereo not given)	-3.6	-10	i	0.92	60	145	101
O=C(OCN1C(=O)c2ccccc2C1=O)C1CCCCC1	-1.9	-4	i	1.1	/	/	89
CC(=O)N1N=C(c2ccc(Cl)cc2)OC1(C)C	-1.4	-9	i	1.1	/	/	50
COc1ccc(C2C(C(C)=O)=C(O)C(=O)N2Cc2cccnc2)cc1 (stereo not given)	-1.0	-3	i	0.96	33	119	112
CCCN1C(=O)/C(=C2\SC(=S)N(c3c(C)n(C)n(-c4ccccc4)c3=O)C2=O)c2ccccc21	/	/	i	0.94	/	/	98
COc1ccc(CN=C2NC(=O)CC(C(=O)Nc3ccc([N+](=O)[O-])cc3C)S2)cc1 (stereo not given)	-1.0	-6	i	0.88	-36	80	100
CC(=O)Cn1c(=O)oc2ccccc21	/	/	i	0.97	/	/	97
CCOC(=O)c1ccc(NC(=O)NCc2ccc(OC)cc2)cc1	/	0	i	1	40	122	106
COc1ccc(/C=C2/CCc3ccccc3C2=O)cc1CN1CCOCC1	-0.5	6	i	0.65	-85	82	101
CCCCNc1c(N)n(CCC)c(=O)[nH]c1=O	/	-10	i	0.99	/	/	100
CCOC(=O)C1C(c2ccc3c(c2)OCO3)NC(=O)NC1(O)C(F)(F)F (stereo not given)	-1.5	7	i	0.94	23	76	101
O=C(CN1CCOCC1)OCCCC1CCCCC1	-1.1	6	i	1	/	/	123

Screening results: PubChem, several laboratories

Rows were taken by chance; any-hit rate near 1.2%.
